Compound activity as filed in PubChem BioAssay.
Mtb MbtI inh = blocks the Mycobacterium tuberculosis siderophore enzyme MbtI; AID 493033; purified MbtI enzyme, fluorescence intensity read-out; inhibition, %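 (about 17 µg/mL by stock and volumes)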; 0.89% of 100,000 active;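 active = above 50% in both replicates, above 80% if mildly self-fluorescent; inactive = the rest, strongly fluorescent compounds included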;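 note: 0% = mean of negative and 100% = mean of positive controls; one replicate is shown; some compounds called inactive have numbers as strong as hits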
Target sequence (P9WFX0 whole entry, looked up): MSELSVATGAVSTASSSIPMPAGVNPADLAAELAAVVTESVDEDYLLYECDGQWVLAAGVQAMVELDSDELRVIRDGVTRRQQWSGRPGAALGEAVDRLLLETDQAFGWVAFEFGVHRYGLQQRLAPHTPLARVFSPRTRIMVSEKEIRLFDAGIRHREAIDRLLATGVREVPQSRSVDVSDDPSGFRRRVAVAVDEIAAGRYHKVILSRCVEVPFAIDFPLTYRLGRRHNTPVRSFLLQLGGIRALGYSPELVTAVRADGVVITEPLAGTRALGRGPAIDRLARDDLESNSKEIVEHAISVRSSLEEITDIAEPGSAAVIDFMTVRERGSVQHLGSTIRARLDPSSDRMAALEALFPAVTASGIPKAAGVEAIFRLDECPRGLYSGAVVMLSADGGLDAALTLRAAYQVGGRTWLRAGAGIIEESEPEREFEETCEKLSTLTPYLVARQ
Mtb MenB inh = blocks the Mycobacterium tuberculosis MenB enzyme; P9WNP5; MenB enzyme assay, absorbance read-out; some hits fall short of the stated cut; inhibition, %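 (about 12 µg/mL by stock and volumes)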; 0.43% of 100,000 active;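 active = mean of two replicates above 30%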;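 note: 0% = no compound and 100% = wells with inactive enzyme; the first replicate is given; strong numbers were not always called active; inactives centre near -10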
Polio RdRp inh = poliovirus RNA polymerase inhibition | P03300 | poliovirus polymerase elongation, fluorescence polarization; hits give low values | % elongation, % (compound at 16.7 µg/mL) | 0.66% of 150,000 active | AID 588519; in the data active = % elongation below about 90%; note: some results filed as inactive read as strong as hits
Target sequence (P03300 1749-2209 limits assumed): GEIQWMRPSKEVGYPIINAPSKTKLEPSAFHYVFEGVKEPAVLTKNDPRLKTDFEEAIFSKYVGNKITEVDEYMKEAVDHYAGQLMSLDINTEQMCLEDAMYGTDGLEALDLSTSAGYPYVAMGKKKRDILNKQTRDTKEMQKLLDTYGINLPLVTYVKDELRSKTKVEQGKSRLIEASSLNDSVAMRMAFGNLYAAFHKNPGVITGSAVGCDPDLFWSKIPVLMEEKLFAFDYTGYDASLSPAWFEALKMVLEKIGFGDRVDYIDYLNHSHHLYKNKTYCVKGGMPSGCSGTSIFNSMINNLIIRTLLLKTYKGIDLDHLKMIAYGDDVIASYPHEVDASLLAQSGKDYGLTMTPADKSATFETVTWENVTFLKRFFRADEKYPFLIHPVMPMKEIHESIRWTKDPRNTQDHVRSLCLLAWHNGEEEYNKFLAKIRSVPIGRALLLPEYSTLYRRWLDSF
Polio RdRp inh intensity = second read-out of Polio RdRp inh, no call of its own (marks repeat the call); % elongation; measured here: total intensity read-out; formula for this scale not given here;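 total fluorescence in place of polarization; lower means less elongation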
Starred values were filed as active, the others as inactive; nt = not tested or not shown.

Value order – Mtb MbtI inh	Mtb MenB inh	Polio RdRp inh	Polio RdRp inh intensity
- O=C1C2C3C=CC(C3)C2C(=O)N1Cc1ccccc1Cl (stereo not drawn)
    0	-17	101	95
- CCc1ccc(NC(=O)COC(=O)C2CCN(c3nc4ccccc4o3)CC2)cc1
    -4	-13	108	89
- FC(F)(F)c1ccc(C2=NCCc3sccc32)cc1
    2	8	103	114
- O=C(NCCCN1CCCC1=O)c1cccnc1
    -2	-5	100	101
- CCN(CC)c1ccc(C(=O)OCC(=O)N2C(C)CCCC2C)cc1 (stereo not drawn)
    -9	nt	102	106
- CCCCN(CC)C(=O)c1nn(-c2ccc(OC)cc2)c(=O)c2ccccc12
    -5	-13	105	104
- COC(=O)C1=C(C)C(c2cccc(Oc3ccccc3)c2)NC(=O)N1 (stereo not drawn)
    -5	-1	105	103
- CC(C)c1ccc(-c2nn(-c3ccccc3)cc2C(=O)Oc2ccc(-c3nnco3)cc2)cc1
    5	-4	102	101
- CSc1ncc(C(=O)OCC(=O)c2ccc(NS(C)(=O)=O)cc2)n1-c1ccccc1
    -11	-6	98	105
- Cc1cc(N2CCN(c3ccccc3)CC2)n2nc(C)c(-c3ccc(Cl)cc3)c2n1
    59	-11	100	103
- O=C(Nc1ccccc1)Nc1cccc(F)c1
    -9	-34	100	101
- CNc1c(NC(=O)c2ccccc2OC)c(=O)oc2ccccc12
    4	-7	102	101
- CC1=NN(C)c2nc3c(c(=O)n(C)c(=O)n3C)n2C1
    25	-6	101	110
- CC(C#N)(NC(=O)CN1CCN(C/C=C/c2ccccc2)CC1)C1CC1 (stereo not drawn)
    0	-28	102	101
- Cc1ccc(CS(=O)(=O)Cc2ccc(C(=O)N3CCc4ccccc4C3)o2)cc1
    4	-7	103	105
- CN(C(=O)COC(=O)c1ccccc1O)C1(C#N)CCCCC1
    -15	-2	nt	nt
- CC(C)CNc1oc(-c2ccccc2)nc1C#N
    99	nt	100	98
- O=C(CCc1c[nH]c2ccccc12)Oc1ccc2c(c1)OCO2
    -22	-47	97	91
- CN(CC(=O)N(Cc1cccs1)c1ccc2c(c1)OCCO2)Cc1ccco1
    1	-17	106	108
- O=C(NC1=C(C(=O)c2ccccc2)N(Cc2ccccc2)S(=O)(=O)c2ccccc21)c1ccccc1
    -12	-23	104	108
- CCNC(=S)Nc1c(C)cccc1C
    nt	7	105	108
- O=C(NC1CCS(=O)(=O)C1)c1cccc(C(F)(F)F)c1 (stereo not drawn)
    -13	-7	nt	nt
- O=C(NC1CCCCC1)C(c1ccco1)N(C(=O)C1COc2ccccc2O1)c1cccc(F)c1 (stereo not drawn)
    -2	35	99	103
- CCOc1ncccc1C(=O)N(C)Cc1c(C)nn(-c2ccccc2)c1C
    -1	-19	102	105
- CCOC(=O)CSc1nc2nccnc2c(=O)n1CCc1ccccc1
    -5	6	102	105
- N=Cc1cc(-c2ccccc2)oc1S
    20	-78	99	97
- Cc1nc(N=Nc2c(O)[nH]c3ccccc23)c2c3c(sc2n1)CCCC3
    16	8	103	105
- COc1ccccc1CCNC(=O)c1cnn2c(C(F)F)cc(C)nc12
    -3	-30	99	102
- Cc1nc(=O)c(-c2ccccc2)c(C)n1-c1ccc(C(=O)O)cc1
    -3	-7	100	103
- O=C(CSc1cccc[n+]1[O-])c1ccc(Cl)s1
    12	nt	104	105

Next section; the last 2 above are carried over.
Value order – Mtb MbtI inh	Mtb MenB inh	Polio RdRp inh	Polio RdRp inh intensity
- Cc1nc(=O)c(-c2ccccc2)c(C)n1-c1ccc(C(=O)O)cc1
    -3	-7	100	103
- O=C(CSc1cccc[n+]1[O-])c1ccc(Cl)s1
    12	nt	104	105
- CC(=O)Nc1cc2c3c(c1)CC(=O)N3CCC2
    -3	-7	101	109
- COC(=O)C(C)n1cnc2c(cnn2-c2ccc(F)cc2)c1=O (stereo not drawn)
    -3	3	102	104
- Cc1ccccc1Cn1cnc2sc(C)c(C)c2c1=O
    nt	-11	101	103
- O=C(C1CC1)N1N=CCC1(O)C(F)(F)F (stereo not drawn)
    18	-12	109	115
- Cc1nn(CC(C)C)c(C)c1CC(=O)O
    -22	1	101	106
- CC1(C)CC(=O)OC1(C)C
    9	-16	100	92
- CC1CN(C(=O)c2ccc3ccccc3n2)CC(C)O1 (stereo not drawn)
    -1	6	nt	nt
- O=C(Nc1ccccc1)C1CCN(c2ncnc3c2nc2n3CCCCC2)CC1
    6	11	102	103
- Cc1ccc(CCC(N)=O)o1
    -2	-53	100	103
- O=C1CN=C(c2ccccc2)c2c(sc3c2CCCC3)N1CCN1CCOCC1
    -6	-40	106	102
- CCOC(=O)/C(C#N)=N/Nc1ccc(SC(F)F)cc1
    9	-88	97	98
- COc1ccc(C2=NCC(CSc3nnnn3C)S2)cc1 (stereo not drawn)
    -8	-22	107	127
- Cc1ccc(N2CC(=O)Nc3c(oc4nc(-c5ccccc5)cc(C)c34)C2=O)cc1
    -3	4	103	105
- COc1ccc(S(=O)(=O)c2ccc(O)cc2)cc1
    -3	8	100	104
- Cc1nccn1CCN
    -4	-35	103	102
- COC(=O)C1C(=O)NC(S)=C(C#N)C1c1ccccc1Cl (stereo not drawn)
    87*	-12	106	121
- c1cc2c(cc1CNC1=NCCC1)OCO2
    -5	-2	98	103
- O=C1c2ccccc2C(=O)N1CC(=O)N1c2ccccc2Sc2ccccc21
    -9	-4	101	103
- Cc1nnc(SC/C=C/c2ccccc2)[nH]c1=O
    40	-8	109	103
- O=C(Cn1c(=O)oc2ccccc21)N1CCC(c2ccccc2)C1 (stereo not drawn)
    -4	1	102	100
- CC1CC(C)CN(C(=O)c2cc(-c3ccccn3)nc3ccccc23)C1 (stereo not drawn)
    -3	nt	100	98
- CCn1c(=O)n(CC)c2cc(NC(=O)Cn3cnc4ccccc43)ccc21
    0	-6	103	100
- CCOC(=O)C1(C2(O)C(=O)c3ccccc3C2=O)CCCC1=O (stereo not drawn)
    -14	-40	75*	72*
- O=C(Cn1c(=O)c2cccn2c2ccc(F)cc21)NCCN1CCCCCC1
    -1	-6	104	103
- Cc1ccc(-n2c(SCc3cc(C)on3)nc3sc(C)c(C)c3c2=O)c(C)c1
    -3	-28	104	100
- CC(O)c1nc2ccccc2n1Cc1ccc(Cl)cc1Cl (stereo not drawn)
    -8	nt	99	96
- COC(=O)Cn1cnc2c(nnn2Cc2ccc(Cl)cc2)c1=O
    2	-8	102	108
- CC(C)(C)c1nnc(-c2cccc(NS(=O)(=O)c3ccc(-c4ccon4)s3)c2)o1
    -8	-37	101	114
- O=C1CCCCC(=O)c2ccccc2N1
    -21	-5	101	110
- NS(=O)(=O)c1ccc(CCNC(=O)CN2CCCc3ccccc32)cc1
    -1	-17	107	114
- O=C(O)c1ccc(NC(=O)c2ccc[n+]([O-])c2)cc1
    -6	nt	100	111
- CCOC(=O)c1cc(CN2CCOCC2)oc1-c1ccccc1
    nt	-16	102	103
- O=C(CN1C(=O)S/C(=C\c2cccs2)C1=O)OCC(=O)c1ccc[nH]1
    11	-36	95	98
- CCN1CCN(CCNC(=O)Nc2ccc(Cl)cc2)CC1
    -3	5	102	104
- COc1ccccc1NC(=O)CO/N=C(\C)c1cccs1
    -15	-22	103	106
- CC1CCN(S(=O)(=O)c2ccc(NC(=O)c3ccc(C(C)(C)C)cc3)cc2)CC1
    92	-14	101	104
- NCCNS(=O)(=O)c1cccc2c(Cl)cccc12
    188	nt	99	102
- O=C(NCCNCc1ccccc1)c1ccco1
    -6	-65	107	100
- CCC(Sc1ncccc1C(=O)OC(C)C)C(=O)NCc1ccco1 (stereo not drawn)
    -12	-11	102	108
- c1ccc(CCSCc2nc3ccccc3[nH]2)cc1
    -2	-23	101	107
- COc1ccc(C2C(C(=O)O)c3ccccc3C(=O)N2Cc2ccc(Cl)cc2)cc1 (stereo not drawn)
    5	5	103	100
- CCOC(=O)c1c(CN2CCOCC2)n(C)c2ccc(O)cc12
    nt	-1	68*	72*
- Cc1cc(C)nc(SCc2nnc(SCc3ccccc3)n2Cc2ccco2)n1
    7	-81	104	99
- Cc1ccc(NC(=O)CSCC(N)=O)cc1C
    -3	6	101	100
- O=C(Nc1ccccc1)NN1CC(=O)N(c2cccc(C(F)(F)F)c2)CC1=O
    1	-7	103	105
- C=CCn1c(=O)c2ccc(C(=O)NCc3ccccc3)cc2n(Cc2ccccc2C#N)c1=O
    0	-27	101	97
- COc1cccc(CNC2CCCC2)c1
    nt	-8	107	114
- Cc1ccccc1/C=N/n1c(C)cc(C)c(C#N)c1=O
    1	-8	104	108
- Cc1nn(CCCN)cc1Cl
    -5	-54	105	104
- CC(=O)Nc1ccc(-c2ccc3nnc(C)n3n2)cc1
    6	-11	105	107
- Cc1cc(C)c2c(c1)/C(=c1/sc3n(c1=O)CN(c1cccc(Br)c1)CN=3)C(=O)N2
    -1	5	101	107
- CCOC(=O)C1CCN(C(=O)c2ccccc2NS(=O)(=O)c2cccs2)CC1
    -25	-21	99	102
- O=C(NC1CCCCC1)N1CCC(c2nc3ccccc3[nH]2)CC1
    -17	-38	104	102
- COc1ccc(CCNC(=O)/C=C2\SC(=O)NC2=O)cc1
    4	-11	nt	nt
- O=C(CCSc1nnc(-c2ccc(O)cc2)o1)N1CCCCC1
    9	-24	101	100
- Cc1ccc(-n2c(SCC(=O)NCCC3=CCCCC3)nc3n[nH]c(C)c3c2=N)cc1Cl
    -22	-24	100	102
- CC(=O)Nc1ccc(NC(=O)C2CCCN(c3cnccn3)C2)cc1 (stereo not drawn)
    -18	3	102	103
- COc1ccc(-n2ccc3ccccc32)cc1
    22	-13	101	103
- O=C1Cc2ccc(F)cc2CC1C1=Cc2ccc(F)cc2CC1 (stereo not drawn)
    -284	-4	100	94
- Cc1nc2ccc(Cl)cc2c2c1CCS2
    34	17	101	102

(continued)
Value order – Mtb MbtI inh	Mtb MenB inh	Polio RdRp inh	Polio RdRp inh intensity
- OC1CCCc2c1[nH]c1ccc(C(F)(F)F)cc21 (stereo not drawn)
    19	-26	104	101
- Cc1nc(C)c(Oc2ccc(Cl)cc2Cl)c(N2CCCCC2)n1
    -16	3	106	110
- CCOC(=O)c1c(NC(C)=O)sc2c1CCC2
    -26	4	100	102
- Cc1nn(CCC#N)c2nc(-c3ccc(C4CCCCC4)cc3)cc(C(=O)O)c12
    105	-21	106	98

An excerpt from the list above, for reference:
Value order – Mtb MbtI inh	Mtb MenB inh	Polio RdRp inh	Polio RdRp inh intensity
- O=C(Nc1ccccc1)NN1CC(=O)N(c2cccc(C(F)(F)F)c2)CC1=O
    1	-7	103	105
- C=CCn1c(=O)c2ccc(C(=O)NCc3ccccc3)cc2n(Cc2ccccc2C#N)c1=O
    0	-27	101	97
- COc1cccc(CNC2CCCC2)c1
    nt	-8	107	114
- Cc1ccccc1/C=N/n1c(C)cc(C)c(C#N)c1=O
    1	-8	104	108
- Cc1nn(CCCN)cc1Cl
    -5	-54	105	104
- CC(=O)Nc1ccc(-c2ccc3nnc(C)n3n2)cc1
    6	-11	105	107
- Cc1cc(C)c2c(c1)/C(=c1/sc3n(c1=O)CN(c1cccc(Br)c1)CN=3)C(=O)N2
    -1	5	101	107
- CCOC(=O)C1CCN(C(=O)c2ccccc2NS(=O)(=O)c2cccs2)CC1
    -25	-21	99	102
- O=C(NC1CCCCC1)N1CCC(c2nc3ccccc3[nH]2)CC1
    -17	-38	104	102
- COc1ccc(CCNC(=O)/C=C2\SC(=O)NC2=O)cc1
    4	-11	nt	nt
- O=C(CCSc1nnc(-c2ccc(O)cc2)o1)N1CCCCC1
    9	-24	101	100
- Cc1ccc(-n2c(SCC(=O)NCCC3=CCCCC3)nc3n[nH]c(C)c3c2=N)cc1Cl
    -22	-24	100	102
- CC(=O)Nc1ccc(NC(=O)C2CCCN(c3cnccn3)C2)cc1 (stereo not drawn)
    -18	3	102	103
- COc1ccc(-n2ccc3ccccc32)cc1
    22	-13	101	103
- O=C1Cc2ccc(F)cc2CC1C1=Cc2ccc(F)cc2CC1 (stereo not drawn)
    -284	-4	100	94
- Cc1nc2ccc(Cl)cc2c2c1CCS2
    34	17	101	102
- OC1CCCc2c1[nH]c1ccc(C(F)(F)F)cc21 (stereo not drawn)
    19	-26	104	101
- Cc1nc(C)c(Oc2ccc(Cl)cc2Cl)c(N2CCCCC2)n1
    -16	3	106	110
- CCOC(=O)c1c(NC(C)=O)sc2c1CCC2
    -26	4	100	102
- Cc1nn(CCC#N)c2nc(-c3ccc(C4CCCCC4)cc3)cc(C(=O)O)c12
    105	-21	106	98
